Cruzain noTriton = blocks cruzain activity in detergent-free assay; P25779; purified cruzain, Z-FR-AMC fluorescence, no detergent; Potency, µM, inactives show max response, negative = inhibition, hits mostly inhibitors; 200,000 compounds, 2.3% hits; AID 1476; active = well fitted curve in the direction sought with a large enough effect; inconclusive = small, poorly fitted or top-dose-only effect, or another doubt; inactive = no such curve, though single readings can be large; an effect the other way counts as inactive or inconclusive;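 also: plate controls were enzyme without inhibitor for no effect and buffer without enzyme for full effect; nearly all actives have a fitted effect of over 40% in size; top concentration of the series not given in the record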
Target sequence (P25779 123-467 limits assumed): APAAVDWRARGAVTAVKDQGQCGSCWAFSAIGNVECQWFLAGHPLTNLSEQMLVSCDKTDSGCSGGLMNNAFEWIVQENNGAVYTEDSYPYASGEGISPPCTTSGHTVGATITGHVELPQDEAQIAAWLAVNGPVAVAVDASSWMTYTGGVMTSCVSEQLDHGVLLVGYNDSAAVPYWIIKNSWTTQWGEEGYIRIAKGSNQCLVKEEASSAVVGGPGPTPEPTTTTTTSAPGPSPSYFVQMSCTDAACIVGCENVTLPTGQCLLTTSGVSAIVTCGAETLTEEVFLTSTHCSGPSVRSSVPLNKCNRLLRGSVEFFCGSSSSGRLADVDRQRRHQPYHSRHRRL
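Detergent-free condition (0.00005% Triton X-100) in acetate buffer pH 5.5 with DTT. 1.5 nM enzyme and compound were pre-mixed 15 min, then 2 uM Z-FR-AMC substrate added; reaction progress from fluorescence change between first and third reads (60 s).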
NS1 inh = inhibitors of influenza NS1 protein function | 270,000 compounds, 0.4% hits | S. cerevisiae slowed by influenza A NS1, growth recovery by OD600 | Potency, µM (doses to about 46.1 µM), inactives show at the highest dose activity, positive = more growth; also: actives are rising curves; nearly all actives have a fitted effect of over 50% in size
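Recovery from NS1-induced slow growth read by OD600 in budding yeast switched to galactose assay medium (pH 6.0, -URA) at 1:100 dilution. Compound 23 nl per well; the matching strain lacking NS1 serves as control.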
Marburg entry inh = blocks Marburg virus binding to or entry into cells | Potency, µM (series often up to 37.8 µM), for inactives: top-dose activity change, negative = inhibition, most hits filed as inhibitors | AID 540276 | Marburg virus pseudotyped entry inhibition, cell reporter; control for the full effect not named in the record; about a third of the inactives were read at about 46 µM | 300,000 compounds, 1.8% hits; active = well fitted inhibition curve with a large enough effect; inconclusive = small, poorly fitted or top-dose-only effect, or effect the other way; inactive = flat fitted curve, though single readings scatter; tested in HEK293 cells; about a fifth of its hits are not listed in these tables; also: % is scaled to controls: 0 for no effect and ±100 for the full control effect; luciferase read-out
Cruzain inh Det = cruzain (T. cruzi) inhibition with detergent. Potency, µM, for inactives: max response, negative = inhibition, usual class: inhibitors. 200,000 compounds, 0.43% hits. P25779. AID 1478. purified cruzain, Z-FR-AMC fluorescence, 0.01% Triton; active = well fitted curve in the direction sought with a large enough effect; inconclusive = small, poorly fitted or top-dose-only effect, or another doubt; inactive = no such curve, though single readings can be large; an effect the other way counts as inactive or inconclusive;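 also: plate controls were neutral wells for no effect and buffer without enzyme for full effect; nearly all actives have a fitted effect of over 40% in size; top concentration of the series not given in the record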
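Enzyme 1.5 nM, Z-FR-AMC 2 uM, NaOAc 100 mM pH 5.5, DTT 5 mM, Triton X-100 0.01%; 15 min RT compound preincubation; kinetic ex360/em450, 60 s delta.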
Lassa entry inh = Lassa virus entry inhibition; Potency, µM (top dose mostly 37.9 µM), inactives show top-dose activity change, negative = inhibition, usual class: inhibitors; Lassa virus pseudotype entry inhibition, cell reporter; control for the full effect not named in the record; AID 540256; 300,000 compounds, 1.2% hits; active means well fitted inhibition curve with a large enough effect; inconclusive means small, poorly fitted or top-dose-only effect, or effect the other way; inactive means flat fitted curve, though single readings scatter; tested in HEK293 cells; also: % is scaled to controls: 0 for no effect and ±100 for the full control effect; nearly all actives have a fitted effect of over 50% in size; luciferase read-out
2A StopGo = lowers the luciferase signal of an FMDV 2A StopGo reporter; AID 1159524; 410,000 compounds, 1.2% hits; Potency, µM (titrated, usually from 57.9 µM), for inactives: at the highest dose signal change, negative = less light; human cells with a luciferase reporter of 2A StopGo recoding; control for the full effect not named in the record; active = well fitted falling curve with a large enough effect; inconclusive = small, poorly fitted or top-dose-only effect; inactive = no such curve, though single readings can be large or run the other way; tested in HEK293T cells; also: % is scaled to controls: 0 for no effect and ±100 for the full control effect; nearly all actives have a fitted effect of over 45% in size; luciferase light after 4 h
SARS PLpro yeast = blocks SARS-CoV papain-like protease in a yeast assay. S. cerevisiae expressing SARS-CoV PLpro, growth rescue; control for the full effect not named in the record. AID 485353. Potency, µM (series often up to 32.9 µM), for inactives: at the top dose activity, positive = growth rescue. 330,000 compounds, 0.19% hits; also: 0% is about no effect; nearly all actives have a fitted effect of over 55% in size; growth read by luminescence after 48 h
RE007 growth inh = less growth of the S. pombe RE007 Vpr strain. S. pombe RE007 Vpr strain, BacTiter-Glo ATP luminescence, 24 h; control for the full effect not named in the record. Potency, µM (doses to about 92.2 µM), for inactives: top-dose activity change, negative = less growth. 360,000 compounds, 0.21% hits. AID 651644; active = well fitted falling curve with a large enough effect; inconclusive = small, poorly fitted or top-dose-only effect; inactive = no such curve, though single readings can be large or run the other way;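 also: % is scaled to controls: 0 for no effect and ±100 for the full control effect; nearly all actives have a fitted effect of over 50% in size; the assay follows cell death caused by Vpr and the record does not say whether a fall means rescue or toxicity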
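Fission yeast RE007 carrying one integrated HIV-1 vpr copy, seeded at OD 0.01 in PMG+AL medium with 23 nL pinned compound. Grown 24 h at 30 degrees; viability read by BacTiter-Glo luminescence after 5 min.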
* = called active by the depositor; & = joins results of further samples; [ ] = remark or other dose. Unless noted, calls follow the shape of the dose curve; as a rule, active means well fitted rising curve with a large enough effect; inconclusive means small, poorly fitted or top-dose-only effect; inactive means no such curve, though single readings can be large or run the other way. Potency is read from the fitted curve at half-maximal effect. Not a hit list. Share with any hit: about 4.8%.

How did CN(CC1COc2ccccc2O1)C(=O)c1ccc(N(C)C)cc1 (stereo not given) do in these assays?
NS1 inh: 2%; 2A StopGo: 19%; SARS PLpro yeast: -3%; RE007 growth inh: -12%

How did CC(=O)c1ccccc1Oc1nc(CN2CCOCC2)nc2scc(-c3cccs3)c12 do in these assays?
Cruzain noTriton: inconclusive; NS1 inh: -11%; Marburg entry inh: 18%&18%; Cruzain inh Det: 2.6%; Lassa entry inh: -15%; 2A StopGo: inconclusive; SARS PLpro yeast: 2%; RE007 growth inh: 16%

What do the screens show for `O=C(O)c1ccc(N2CC3CC(C2)c2cccc(=O)n2C3)c(NC(=S)Nc2ccc(Br)cc2)c1` (stereo not given)?
Marburg entry inh: -12%[46.1 µM]; Lassa entry inh: -9%[46.1 µM]; 2A StopGo: 3%; SARS PLpro yeast: -5%; RE007 growth inh: 5%

Results for Cc1sc2nc(CN(Cc3cccs3)C(=O)NC3CCCCC3)[nH]c(=O)c2c1C ?
Cruzain noTriton: 11%; NS1 inh: 0.45µM*; Marburg entry inh: inconclusive; Cruzain inh Det: 0.7%; 2A StopGo: -26%; SARS PLpro yeast: -10%; RE007 growth inh: -7%

How did CC(C)C(C(=O)Nc1nccs1)N1C(=O)c2ccccc2C1=O (stereo not given) do in these assays?
NS1 inh: 2%; Marburg entry inh: 0%[46.1 µM]; Lassa entry inh: 3%; 2A StopGo: 4%; SARS PLpro yeast: 0%; RE007 growth inh: 16%

Results for C=CCn1c(P(=O)(O)c2ccccc2)nc2ccccc21 ?
Cruzain noTriton: -5%; NS1 inh: -9%; Marburg entry inh: 15%; Cruzain inh Det: 9.1%; Lassa entry inh: 23%; 2A StopGo: 0%; SARS PLpro yeast: 10%; RE007 growth inh: 8%

What do the screens show for `O=C(O)C1Cc2ccccc2CN1C(=O)CCl` (stereo not given)?
Marburg entry inh: 3%[46.1 µM]; Lassa entry inh: -9%; 2A StopGo: -18%; SARS PLpro yeast: -3%; RE007 growth inh: -3%

How did NC(=O)C1CCCN(C(=O)NC2CCCCC2)C1 (stereo not given) do in these assays?
Cruzain noTriton: -16%; NS1 inh: -3%; Marburg entry inh: -2%[46.1 µM]; Cruzain inh Det: 4.6%; Lassa entry inh: 8%; 2A StopGo: 7%; SARS PLpro yeast: -5%; RE007 growth inh: -7%

Results for Cc1nc(CNC(=O)C2CCC(=O)N(Cc3cccc(F)c3)C2)sc1C (stereo not given) ?
NS1 inh: 1%; Marburg entry inh: 16%[46.1 µM]; Lassa entry inh: inconclusive; 2A StopGo: -7%; SARS PLpro yeast: 6%; RE007 growth inh: 5%

What do the screens show for `O=S(=O)(Nc1ccc2c(c1)OCCO2)c1cccc2nsnc12`?
Cruzain noTriton: -23%; NS1 inh: 2%; Marburg entry inh: 14%; Cruzain inh Det: 0.2%; Lassa entry inh: 19%; 2A StopGo: inconclusive; SARS PLpro yeast: 2%; RE007 growth inh: 9%

How did Cc1cc2cc(CN(Cc3cccs3)C(c3nnnn3C(C)(C)C)C(C)C)c3nnnn3c2cc1C (stereo not given) do in these assays?
Cruzain noTriton: 7.9µM*; NS1 inh: 4%; Marburg entry inh: 8%; Cruzain inh Det: -2.3%; Lassa entry inh: 9%; 2A StopGo: -8%; SARS PLpro yeast: 15%; RE007 growth inh: 6%

What do the screens show for `O=C(Nc1ccc(Cl)cc1)Nc1cc(S(=O)(=O)N2CCOCC2)ccc1N1CCCC1`?
Cruzain noTriton: 10%; NS1 inh: -19%; Marburg entry inh: -17%; Cruzain inh Det: -11%; Lassa entry inh: -6%; 2A StopGo: -19%; SARS PLpro yeast: 8%; RE007 growth inh: -2%

Results for CCOc1ccccc1NCc1cc(=O)oc2cc(C)c(O)cc12 ?
NS1 inh: -2%; 2A StopGo: -16%; SARS PLpro yeast: -13%; RE007 growth inh: 0%

Results for CC[C@H](C)[C@H](NC(N)=O)C(=O)OCC(=O)NCc1ccc(Cl)cc1 ?
NS1 inh: 6%; Marburg entry inh: 7%; Lassa entry inh: 6%; 2A StopGo: -11%; SARS PLpro yeast: -4%; RE007 growth inh: 4%

What do the screens show for `CCN(CC(=O)Nc1c(F)cccc1F)C(=O)c1ccc(C#N)cc1`?
NS1 inh: 1%; 2A StopGo: -6%; SARS PLpro yeast: 0%; RE007 growth inh: 8%

What do the screens show for `Cc1ccc(C(=O)N/C(=C\c2ccc(-c3ccc(Cl)cc3)o2)C(=O)NCCCN(C)C)cc1`?
Marburg entry inh: 6.3µM*; Lassa entry inh: inconclusive; 2A StopGo: -22%; SARS PLpro yeast: 0%; RE007 growth inh: 11%

Results for O=C(NN1CCCCC1)c1cccc2ccccc12 ?
NS1 inh: 3%; Marburg entry inh: 4%[46.1 µM]; Lassa entry inh: -2%; 2A StopGo: -7%; SARS PLpro yeast: -1%; RE007 growth inh: 4%

What do the screens show for `COc1ccccc1Oc1nc(-c2ccccc2)cc(C)c1S(C)(=O)=O`?
Cruzain noTriton: -7%; NS1 inh: 4%; Marburg entry inh: inconclusive; Cruzain inh Det: -10%; Lassa entry inh: -18%; 2A StopGo: 0%; SARS PLpro yeast: 4%; RE007 growth inh: -7%

What do the screens show for `CC(/C=C/c1ccco1)=N\NC(=O)COc1ccc(C)c(C)c1`?
NS1 inh: -8%; Marburg entry inh: 0%[46.1 µM]; Lassa entry inh: 4%[46.1 µM]; 2A StopGo: 11%; SARS PLpro yeast: -3%; RE007 growth inh: -16%

What do the screens show for `Cc1cc(S(=O)(=O)Nc2ccc(C(=O)N3CCN(C(=O)c4ccco4)CC3)cc2)ccc1F`?
Cruzain noTriton: 14%; NS1 inh: -5%; Marburg entry inh: inconclusive; Cruzain inh Det: 2.8%; Lassa entry inh: -24%; 2A StopGo: -18%; SARS PLpro yeast: -13%; RE007 growth inh: -5%

Results for CC1=C(C(=O)OC(C)C)C(c2ccccc2)NC(=S)N1C (stereo not given) ?
Cruzain noTriton: 9%; NS1 inh: 9%; Marburg entry inh: inconclusive; Cruzain inh Det: -6.4%; Lassa entry inh: inconclusive; 2A StopGo: inconclusive; SARS PLpro yeast: 30%; RE007 growth inh: -10%

What do the screens show for `FC(F)(F)c1ccc(Cl)c(NC(=S)N/N=C/c2ccccc2C(F)(F)F)c1`?
Cruzain noTriton: -26%; NS1 inh: 18%; Marburg entry inh: 6%; Cruzain inh Det: -5.4%; Lassa entry inh: 6%; 2A StopGo: -18%; SARS PLpro yeast: 23%; RE007 growth inh: 9%

Results for CCOC(=O)c1sc(NC(=O)c2cc3nc(-c4ccccc4)cc(C(F)(F)F)n3n2)c(C(=O)OCC)c1C ?
Cruzain noTriton: 7%; Marburg entry inh: -18%[46.1 µM]; Cruzain inh Det: -0.5%; Lassa entry inh: -1%[46.1 µM]; 2A StopGo: -3%

What do the screens show for `O=C1CCCC2=C1C(c1ccc(Cl)cc1)n1c(s/c(=C\c3ccc4ccncc4c3)c1=O)=N2` (stereo not given)?
Cruzain noTriton: -28%; NS1 inh: 13%; Marburg entry inh: -11%; Cruzain inh Det: -3.1%; Lassa entry inh: 16%; 2A StopGo: inconclusive; SARS PLpro yeast: 6%; RE007 growth inh: 1%

How did CCC(=O)NC(NC(=S)Nc1ccc(S(N)(=O)=O)cc1)C(Cl)(Cl)Cl (stereo not given) do in these assays?
Cruzain noTriton: 11%; NS1 inh: 21%; Marburg entry inh: inconclusive; Cruzain inh Det: -3.6%; Lassa entry inh: -15%; 2A StopGo: -13%; SARS PLpro yeast: -3%; RE007 growth inh: -9%

How did CCCn1c(=N)n(CC(=O)C(C)(C)C)c2ccccc21 do in these assays?
Cruzain noTriton: -2%; NS1 inh: -16%; Marburg entry inh: -4%; Cruzain inh Det: 0.7%; Lassa entry inh: 5%; 2A StopGo: 0%; SARS PLpro yeast: 1%; RE007 growth inh: -4%

Results for Cc1cccc(-c2noc(-c3cc(-c4ccc(F)cc4)n[nH]3)n2)c1 ?
Cruzain noTriton: 0%; Cruzain inh Det: 3.9%; Lassa entry inh: -3%[46.1 µM]; 2A StopGo: -1%

What do the screens show for `CCOc1ccc(CN2CCc3nc(N4CCN(c5ncccn5)CC4)ncc3C2)cc1OC`?
Cruzain noTriton: 9%; Cruzain inh Det: -1.1%; Lassa entry inh: -29%[46.1 µM]; 2A StopGo: inconclusive

How did COCCNCCCCOc1c(Cl)cc(C)cc1Br do in these assays?
Cruzain noTriton: -6%; NS1 inh: -3%; Marburg entry inh: inconclusive; Cruzain inh Det: 5.0%; Lassa entry inh: -20%; 2A StopGo: -29%; SARS PLpro yeast: 4%; RE007 growth inh: -27%

Results for COc1ccccc1N1CCN(CC(=O)Nc2c(C)n(C)n(-c3ccccc3)c2=O)CC1 ?
Marburg entry inh: inconclusive; Lassa entry inh: -9%[46.1 µM]; 2A StopGo: 15%; SARS PLpro yeast: 2%; RE007 growth inh: 9%

What do the screens show for `C/C(Cl)=C/Cn1c(NCCN(C)C)nc2c1c(=O)n(C)c(=O)n2C`?
Cruzain noTriton: -2%; NS1 inh: 0%; Marburg entry inh: -10%[46.1 µM]; Cruzain inh Det: 5.2%; Lassa entry inh: 2%; 2A StopGo: -25%; SARS PLpro yeast: 4%; RE007 growth inh: -23%

How did CCn1ccnc1CN(C)Cc1nc(-c2ccc(C(=O)OC)cc2)no1 do in these assays?
NS1 inh: 2%; 2A StopGo: -14%; SARS PLpro yeast: 3%; RE007 growth inh: -9%

How did Clc1ccc(-c2nnc(SCc3cn4ccsc4n3)n2CC2CCCO2)cc1 (stereo not given) do in these assays?
Cruzain noTriton: -4%; NS1 inh: 0%; Marburg entry inh: 0%; Cruzain inh Det: 2.2%; Lassa entry inh: 0%; 2A StopGo: 43%[activator]; SARS PLpro yeast: -3%; RE007 growth inh: 8%

Results for Cc1cccc(S(=O)(=O)N2CCCc3ccccc32)c1 ?
NS1 inh: -9%; 2A StopGo: 11%; SARS PLpro yeast: -7%; RE007 growth inh: -1%

What do the screens show for `CCc1ccc(-n2nc(C)c3c(C(=O)N4CCN(c5cccc(Cl)c5)CC4)cc(C)nc32)cc1`?
Cruzain noTriton: 10%; Cruzain inh Det: 4.2%; Lassa entry inh: 9%[46.1 µM]; 2A StopGo: inconclusive
